Assay outcomes (PubChem BioAssay)
LANA-H2B inh: blocks KSHV LANA binding to histone H2A/H2B; Q9QR71; cell-free LANA-H2A/H2B peptide, fluorescence polarization; inhibition, % (concentration not given with the values); 0.6% of 320,000 active; AID 2629; in the data active = inhibition mostly above about 10%, no sharp cut-off; inactive = mostly below about 6.7%;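 note: stock transfer was 7.5 nL into about 10 µL; 0% = median of vehicle wells and 100% = median of positive control wells; one replicate is shown; the record names a cut of 25% in any replicate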
Target sequence (Q9QR71 whole entry, looked up): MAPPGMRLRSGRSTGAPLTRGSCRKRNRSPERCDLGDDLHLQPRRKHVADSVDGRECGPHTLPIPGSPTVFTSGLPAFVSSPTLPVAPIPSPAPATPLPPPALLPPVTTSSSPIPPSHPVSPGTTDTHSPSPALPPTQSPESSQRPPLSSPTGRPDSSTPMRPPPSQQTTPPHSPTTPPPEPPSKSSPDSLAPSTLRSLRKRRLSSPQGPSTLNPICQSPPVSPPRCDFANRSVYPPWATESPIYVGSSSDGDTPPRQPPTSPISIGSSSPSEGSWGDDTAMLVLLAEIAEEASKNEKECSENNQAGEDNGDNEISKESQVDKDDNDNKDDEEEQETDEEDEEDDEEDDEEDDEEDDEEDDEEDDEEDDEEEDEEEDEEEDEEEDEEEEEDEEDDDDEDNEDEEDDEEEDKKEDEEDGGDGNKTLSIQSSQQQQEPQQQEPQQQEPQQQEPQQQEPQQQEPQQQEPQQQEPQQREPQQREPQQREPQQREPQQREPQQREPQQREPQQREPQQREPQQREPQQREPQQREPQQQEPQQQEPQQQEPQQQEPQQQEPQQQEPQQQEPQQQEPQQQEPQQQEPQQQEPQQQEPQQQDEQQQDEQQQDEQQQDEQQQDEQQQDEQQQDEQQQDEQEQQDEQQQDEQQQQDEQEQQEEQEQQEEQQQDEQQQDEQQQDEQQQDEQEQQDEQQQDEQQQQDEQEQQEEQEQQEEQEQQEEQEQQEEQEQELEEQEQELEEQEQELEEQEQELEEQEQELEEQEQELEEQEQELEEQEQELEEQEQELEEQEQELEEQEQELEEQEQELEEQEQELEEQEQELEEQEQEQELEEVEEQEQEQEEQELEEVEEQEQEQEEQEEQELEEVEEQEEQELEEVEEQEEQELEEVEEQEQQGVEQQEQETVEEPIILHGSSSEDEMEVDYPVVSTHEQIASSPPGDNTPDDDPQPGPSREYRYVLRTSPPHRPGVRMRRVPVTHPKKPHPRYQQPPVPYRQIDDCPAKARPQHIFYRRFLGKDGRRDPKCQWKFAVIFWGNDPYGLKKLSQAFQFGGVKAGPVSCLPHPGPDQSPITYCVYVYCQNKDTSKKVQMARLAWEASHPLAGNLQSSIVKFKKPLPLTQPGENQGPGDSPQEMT
Calb FLC: C. albicans growth modulation with fluconazole; 0.57% of 300,000 active; growth inhibition, % (no concentration beside the values); AID 1979; C. albicans CaCi-2 (fluconazole-resistant clinical isolate) + fluconazole, Alamar Blue growth, 48 h;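 active = most replicates above 75%; inconclusive = exactly half above 75%; inactive = most below 75%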;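 note: all wells also contain fluconazole at 8 µg/ml as a sub-toxic cotreatment; 0% = median of DMSO wells and 100% = median of geldanamycin control wells; wells of about 8 µL received 7.5 nL stock; the first replicate is given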
AF4-AF9 inh: MLL-AF4/AF9 protein interaction inhibition | 0.47% of 350,000 active | P42568 | AlphaScreen, biotin-AF4 peptide binding to FLAG-AF9 | AID 651704 | inhibition, % at 10 µM;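 active = every replicate reaching a set inhibition limit, whatever the replicate mean, cut at about 25% in these data; inconclusive = mean inhibition reaches that limit but some replicates miss it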;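 note: 0% = plate neutral control median and 100% = total signal loss; the record names both 10 and 1 µM as test concentration; the first replicate is given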
Bfl-1 A1 inh: inhibitors of the anti-apoptotic protein A1, read as caspase activation; caspase activation, % (test concentration not listed); 0.066% of 330,000 active; AID 2462; MEF A1-2A-BIM cells, Caspase-Glo 3/7 luminescence, 3 h; percent of clofoctol response, vehicle zero;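 active = over half of replicate activation scores above 10%, or exactly half above 10 with the replicate mean above 10; inconclusive = replicate mean below 10 yet half the replicates above 10; inactive = over half of replicates below 10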;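 note: wells of about 30 µL received 50 nL stock; many hits fall short of the cut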
RanGTP-Impb inh: disruptors of Ran-importin-beta complex formation – biochemical, FRET, CFP-Ran, YFP-importin-beta, homogeneous, primary screen | cell-free CFP-Ran/YFP-importin-beta FRET ratio | inhibition, % (concentration not given with the values) | 1.1% of 300,000 active | AID 2216;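 active = most replicates above 15%; inconclusive = exactly half above 15%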;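 note: 0% = DMSO wells and 100% = Ran loaded with GDP instead of GTP; wells of about 40 µL received 100 nL stock; the first replicate is given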
Beta cell apopt: beta cell apoptosis inhibition; INS-1E cytokine-induced death, ATP luminescence, 48 h; percent of positive-control rescue, neutral wells zero; protection from apoptosis, % (no concentration beside the values); 0.8% of 300,000 active; AID 435005;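 active = all replicates at 75% or more, or half of them and the mean; inconclusive = half reach 75% but not the mean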;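 note: 0% = cytokine-treated negative control wells and 100% = positive control rescue; higher means more ATP so stronger rescue from cytokine killing; wells of about 40 µL received 100 nL stock; the first replicate is given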
Vif A3G: HIV-1 Vif–A3G interaction blockers – biochemical, TR-FRET, GST-Vif 1-94, biotin-A3G peptide, dose response retest, primary screen (AID 1117319); TR-FRET GST-Vif / biotin-A3G peptide binding; higher % means a stronger effect; test concentration not given here; strong numbers were not always called active; one-dose inhibition, %; IC50 in µM for titrated hits; 0.57% of 260,000 active;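 active = above the screen mean plus three standard deviations and confirmed in dose response; inconclusive = results disagree or hit not tested in dose response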;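 note: Vif residues 1-94 fused to GST binding biotinylated APOBEC3G peptide 110-148; 0% = full assay without inhibitor and 100% = GST in place of GST-Vif; retest series ran down from 100 µM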
T cruzi repl: blocks replication of Trypanosoma cruzi | inhibition, % (no concentration beside the values) | T. cruzi beta-gal in NIH3T3, luminescence, 90 h | 1.4% of 300,000 active | AID 1885;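 active = mean inhibition across valid replicates above about 55%, limit read from the data; inconclusive = mean below that limit but half or more replicates reach it; inactive = mean below it, under half of replicates reach it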;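 note: signal also drops with host cell toxicity which is not excluded here; 0% = plate median of DMSO wells and 100% = zero luminescence signal; higher percent means less beta-gal luminescence so fewer parasites; stock transfer was 50 nL into about 50 µL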
* marks the source's active call; other numbers are inactive results; & = joins results of further samples.

Screening O=C(NC(=S)Nc1ccc(CN2CCOCC2)cc1)c1ccc([N+](=O)[O-])cc1Cl returned LANA-H2B inh -4.2, Calb FLC 28, AF4-AF9 inh 3.6, Bfl-1 A1 inh 0.3, RanGTP-Impb inh -0.8, Beta cell apopt 5, Vif A3G -7% and T cruzi repl 29.
Screening O=C(Nc1cc(-c2nc3ncccc3o2)ccc1Cl)c1cccs1 returned LANA-H2B inh -0.8, Calb FLC 4, AF4-AF9 inh -0.3, Bfl-1 A1 inh 0.0, RanGTP-Impb inh 1.4, Beta cell apopt 5, Vif A3G -6% and T cruzi repl 12.
`CC/C(=N\NC(=S)NC(C)C)c1ccc(OC)c(OC)c1` gave LANA-H2B inh 9.3, Calb FLC 3, AF4-AF9 inh 2.8, Bfl-1 A1 inh 0.8, RanGTP-Impb inh 0.2, Vif A3G 3% and T cruzi repl 1.
`Cc1ccc2[nH]c(=O)c3cc(C(=O)NCCC(C)C)sc3c2c1` gave LANA-H2B inh 0.0, Calb FLC 28, AF4-AF9 inh -1.8, Bfl-1 A1 inh 0.3, RanGTP-Impb inh -2.4, Beta cell apopt 7, Vif A3G -1% and T cruzi repl 12.
O=C(c1ccc(C(F)(F)F)cc1)c1c[nH]c(C(=O)NCCCn2ccnc2)c1 was read as LANA-H2B inh 10, Calb FLC 6, Bfl-1 A1 inh 0.3, RanGTP-Impb inh 1.4, Beta cell apopt 1, Vif A3G 13% and T cruzi repl -4.
Screening O=C(N/N=C/C=C/c1ccccc1)c1ccccn1 returned LANA-H2B inh -0.7, Calb FLC 3, AF4-AF9 inh -4.6, Bfl-1 A1 inh -3.5, RanGTP-Impb inh -0.1, Beta cell apopt -5, Vif A3G 1% and T cruzi repl -4.
Screening Cc1nn(C)c(C)c1C(=O)NN returned LANA-H2B inh 0.2, Calb FLC 3, Bfl-1 A1 inh -0.8, RanGTP-Impb inh -0.4, Beta cell apopt -16, Vif A3G 5% and T cruzi repl 4.
Fc1ccc(C(c2nnnn2C2CCCC2)N2CCN(Cc3ccncc3)CC2)cc1 (stereo not given) was read as LANA-H2B inh -2.2, Calb FLC 1, Bfl-1 A1 inh -0.4, RanGTP-Impb inh 5.1, Beta cell apopt -9, Vif A3G -4%&-4% and T cruzi repl 2.
Screening CC(=O)N1CCc2c(sc(NC(=O)c3ccc([N+](=O)[O-])o3)c2C#N)C1 returned Calb FLC 11, AF4-AF9 inh 4.1, RanGTP-Impb inh -1.6, Vif A3G 25% and T cruzi repl -18.
For COc1ccc2cc(-c3[nH]ncc3CN3CCCC3c3nonc3C)ccc2c1 (stereo not given) the results were LANA-H2B inh -6.9, Calb FLC 6, AF4-AF9 inh 7.8, Bfl-1 A1 inh -0.2, RanGTP-Impb inh -14, Beta cell apopt 1, Vif A3G 5% and T cruzi repl 3.
Screening CN(C(=O)COC(=O)c1n[nH]c2ccccc12)C1CCS(=O)(=O)C1 (stereo not given) returned LANA-H2B inh -11, Calb FLC -19, Bfl-1 A1 inh 0.5, RanGTP-Impb inh -0.9, Beta cell apopt -1, Vif A3G 31% and T cruzi repl -6.
For COCCn1c(=O)c2c(nc3n2CCCN3Cc2ccccc2)n(C)c1=O the results were LANA-H2B inh -1.1, Calb FLC -3, AF4-AF9 inh 2.0, Bfl-1 A1 inh 0.4, RanGTP-Impb inh -2.8, Beta cell apopt -3, Vif A3G -7% and T cruzi repl 8.
`O=C(/C=C/c1cc(Br)ccc1F)Nc1cccnc1` gave LANA-H2B inh 7.0, Calb FLC 3, AF4-AF9 inh 1.3, Bfl-1 A1 inh -2.6, RanGTP-Impb inh 2.2, Beta cell apopt -3 and T cruzi repl -6.
Screening CC(C)CC1C(C#N)=C(N)SC(N)=C1C#N returned LANA-H2B inh -0.5, Calb FLC 53, Bfl-1 A1 inh -0.8, RanGTP-Impb inh 41*, Beta cell apopt 9, Vif A3G 7% and T cruzi repl -12.
For COC(=O)[C@@H]1CC[C@H](C)[C@@H](c2ccc(C)cc2)N1C(=O)c1ccc(/C=N/OC[C@@H](O)COCc2ccco2)cc1 the results were Calb FLC 9, RanGTP-Impb inh -1.6, Vif A3G inconclusive and T cruzi repl 35.
Screening CCn1c(=S)sc2c(=O)n(CC(=O)Nc3ccccc3)c(C)nc21 returned LANA-H2B inh -3.5, Calb FLC -13, AF4-AF9 inh 2.7, Bfl-1 A1 inh -2.6, RanGTP-Impb inh 3.6, Beta cell apopt 6 and T cruzi repl 12.
Screening O=c1c(Cl)c(Cl)cnn1Cc1ccccc1Cl returned LANA-H2B inh 9.5, Calb FLC 20, Bfl-1 A1 inh 8.3*, RanGTP-Impb inh -1.5, Beta cell apopt 7, Vif A3G 19% and T cruzi repl 25.
For COc1ccccc1NS(=O)(=O)c1ccc(C(=O)N2CCCC(C)C2)cc1 (stereo not given) the results were LANA-H2B inh 3.5, Calb FLC 8, AF4-AF9 inh 0.5, Bfl-1 A1 inh -0.7, RanGTP-Impb inh -0.7 and T cruzi repl -10.
For COc1ccc(N2CCN(Cc3nnc(-c4ccccc4)o3)CC2)cc1 the results were LANA-H2B inh 0.6, Calb FLC -18, Bfl-1 A1 inh -0.2, RanGTP-Impb inh 0.9, Beta cell apopt 0 and T cruzi repl 13.
COC(=O)c1sc(-c2ccc(C(C)(C)C)cc2)cc1NC(=O)CCC(=O)O was read as LANA-H2B inh -2.3, Calb FLC -6, AF4-AF9 inh 3.1, Bfl-1 A1 inh -0.3, RanGTP-Impb inh -1.6, Beta cell apopt -3, Vif A3G -18% and T cruzi repl -13.
Screening COc1ccc(-c2cc(C(=O)N3CCCCCC3)c3ccccc3n2)c(OC)c1 returned LANA-H2B inh 5.7, Calb FLC -3, AF4-AF9 inh 1.1, Bfl-1 A1 inh -0.2, RanGTP-Impb inh 2.8, Beta cell apopt 6, Vif A3G 10% and T cruzi repl 26.
`CC(=O)NC(Cc1cccc(F)c1)C(=O)NC1CCN(c2nnnn2-c2ccccc2)CC1` (stereo not given) gave LANA-H2B inh -2.5, Calb FLC 1, AF4-AF9 inh 0.1, Bfl-1 A1 inh 0.2, RanGTP-Impb inh 6.3, Beta cell apopt 0, Vif A3G -5% and T cruzi repl 0.
`COC(=O)[C@@]1(Cc2ccc(F)cc2)[C@H]2c3cc(C(=O)N(C)C)n(Cc4nc5ccccc5[nH]4)c3C[C@H]2CN1C(=O)c1ccccc1` gave LANA-H2B inh -3.7, AF4-AF9 inh 11, Bfl-1 A1 inh 0.8, Beta cell apopt -3 and Vif A3G 19%.
For COc1ccc(NCc2cccnc2)cc1 the results were LANA-H2B inh 6.4, Calb FLC -1, AF4-AF9 inh -0.2, Bfl-1 A1 inh -0.4, RanGTP-Impb inh 2.3 and T cruzi repl 0.
Screening C[C@H]1CN([C@@H](C)CO)C(=O)c2cccc(NC(=O)C3CC3)c2O[C@H]1CN(C)C(=O)Nc1ccc2c(c1)OCO2 returned LANA-H2B inh -1.5, AF4-AF9 inh -12, Bfl-1 A1 inh 0.7 and Beta cell apopt -1.
Screening Cc1cc(C)cc(C(=O)N(Cc2ccco2)c2c(N)n(Cc3ccccc3)c(=O)[nH]c2=O)c1 returned LANA-H2B inh -1.7, AF4-AF9 inh 1.2, Bfl-1 A1 inh 0.4, Beta cell apopt 1 and Vif A3G -9%.
For CCOC(=O)N1CCN(C(=O)c2cc3c(ccc4ccccc43)oc2=O)CC1 the results were LANA-H2B inh -8.3, Calb FLC 2, Bfl-1 A1 inh 1.2, RanGTP-Impb inh -3.2, Beta cell apopt -8, Vif A3G -3% and T cruzi repl 0.
Cc1c(Br)c([N+](=O)[O-])nn1CC(=O)Nc1sc2c(c1C(=O)OC(C)C)CCCC2 was read as LANA-H2B inh 1.1, Calb FLC 8, Bfl-1 A1 inh -0.4, RanGTP-Impb inh 3.4, Beta cell apopt 25, Vif A3G -1% and T cruzi repl 30.
Cn1cnc([N+](=O)[O-])c1NC(C)(C)C was read as LANA-H2B inh 0.4, Calb FLC 2, Bfl-1 A1 inh 0.7, RanGTP-Impb inh 5.0, Beta cell apopt -1, Vif A3G -6% and T cruzi repl -12.
CC(C)(C)CC(=O)O/N=C(\N)c1ccncc1 was read as LANA-H2B inh 0.2, Calb FLC -2, AF4-AF9 inh -1.0, Bfl-1 A1 inh 1.1, RanGTP-Impb inh -6.1, Beta cell apopt -4 and T cruzi repl -5.
CCN1C(=O)CCCc2ccccc21 was read as LANA-H2B inh 1.2, Calb FLC -9, AF4-AF9 inh 0.1, Bfl-1 A1 inh -0.2, RanGTP-Impb inh 1.7, Beta cell apopt -20 and T cruzi repl 6.
For COc1cc2ccccc2cc1C(=O)NC1CCCCC1 the results were LANA-H2B inh 9.9, AF4-AF9 inh 0.1, Bfl-1 A1 inh -1.0, Beta cell apopt -1 and Vif A3G 0%.
For CCSc1nnc(-c2ccc(Cl)cc2Cl)o1 the results were LANA-H2B inh -0.5, Calb FLC -20, Bfl-1 A1 inh -1.4, RanGTP-Impb inh 4.2, Beta cell apopt -1, Vif A3G 2% and T cruzi repl -11.
COc1ccc(C)cc1NC(=O)CN(C)S(=O)(=O)c1ccc2c(c1)CC(C)N2C(C)=O (stereo not given) was read as LANA-H2B inh 4.5, Calb FLC -7, AF4-AF9 inh 4.4, Bfl-1 A1 inh 0.2, RanGTP-Impb inh -1.4, Beta cell apopt -2 and T cruzi repl -4.
Screening COc1cccc(N/C=C/C(=O)c2ccc(Cl)cc2)c1 returned LANA-H2B inh inactive, Calb FLC inconclusive, AF4-AF9 inh -2.0, Bfl-1 A1 inh -7.1, RanGTP-Impb inh 3.3, Beta cell apopt 0, Vif A3G -7% and T cruzi repl 3.
`O=C(CNC(=O)c1ccc(Br)o1)NNC(=O)c1ccccc1O` gave LANA-H2B inh -8.7, AF4-AF9 inh -15, Bfl-1 A1 inh -0.3, RanGTP-Impb inh 2.1, Beta cell apopt 0 and T cruzi repl 2.
For Cc1c(NC(=O)C2CC(c3ccc(F)cc3)=NO2)c(=O)n(-c2ccccc2)n1C (stereo not given) the results were LANA-H2B inh 0.3, Calb FLC 2, AF4-AF9 inh -2.1, Bfl-1 A1 inh 0.8, RanGTP-Impb inh 1.0, Beta cell apopt -3, Vif A3G -4% and T cruzi repl 3.
`COCCCn1c(SCC(=O)NC2CCCC2)nnc1-c1ccncc1` gave LANA-H2B inh 3.4, Calb FLC 4, AF4-AF9 inh -1.4, Bfl-1 A1 inh -0.2, RanGTP-Impb inh -0.6, Beta cell apopt -2 and T cruzi repl 11.
`CN1CCN(S(=O)(=O)c2ccc(C(=O)Nc3ccccc3)cc2)CC1` gave LANA-H2B inh -0.1, Calb FLC 4, Bfl-1 A1 inh 0.2, RanGTP-Impb inh 5.4, Beta cell apopt -9 and Vif A3G -3%.
Screening CCOCCCNC(=O)c1ccc(OC)cc1 returned LANA-H2B inh 5.2, Calb FLC 0, Bfl-1 A1 inh 1.4, RanGTP-Impb inh 1.8, Beta cell apopt -4, Vif A3G 5% and T cruzi repl 5.
O=C(O)c1ccc(CSc2nnc(-c3ccncc3)n2CC2CCCO2)cc1 (stereo not given) was read as LANA-H2B inh 0.3, Calb FLC -8, Bfl-1 A1 inh -1.3, RanGTP-Impb inh -1.5, Beta cell apopt -8, Vif A3G -2% and T cruzi repl -7.
O=C(NCC1CCN(Cc2ccc(F)cc2)CC1)Nc1cc(F)ccc1F was read as LANA-H2B inh 1.1, Calb FLC -1, AF4-AF9 inh 3.9, Bfl-1 A1 inh -0.2, RanGTP-Impb inh -0.8, Beta cell apopt 7, Vif A3G 2% and T cruzi repl 47.
